From PubChem BioAssay
VDR inh – inhibitors of human vitamin D receptor; P11473; VDR-SRC2-3 peptide fluorescence polarization, 2 h; Potency, µM, without a hit: max response, negative = inhibition, most hits filed as inhibitors; 400,000 tested, 0.93% active; AID 504847; active means well fitted inhibition curve with a large enough effect; inconclusive means small, poorly fitted or top-dose-only effect, or another doubt; inactive means no such curve, though single readings can be large or run the other way; further: series mostly up to about 120 µM
Target sequence (P11473 whole entry, looked up): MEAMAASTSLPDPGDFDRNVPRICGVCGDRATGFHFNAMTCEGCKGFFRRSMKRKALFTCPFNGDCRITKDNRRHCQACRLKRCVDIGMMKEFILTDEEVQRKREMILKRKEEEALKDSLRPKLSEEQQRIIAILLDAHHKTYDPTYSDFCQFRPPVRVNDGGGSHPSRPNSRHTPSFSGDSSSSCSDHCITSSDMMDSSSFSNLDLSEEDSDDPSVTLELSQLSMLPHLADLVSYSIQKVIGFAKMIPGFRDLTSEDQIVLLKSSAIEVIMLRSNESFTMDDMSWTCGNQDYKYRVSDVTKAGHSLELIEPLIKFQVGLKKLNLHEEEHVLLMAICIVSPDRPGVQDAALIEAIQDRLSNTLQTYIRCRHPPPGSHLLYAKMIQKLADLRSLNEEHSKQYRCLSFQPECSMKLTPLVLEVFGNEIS
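VDR–SRC2-3 interaction, FP format. Cmpds 23 nl via pintool, brief spin, 2 h ambient incubation.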
* hit, by the source's call; u = inconclusive; & = joins results of further samples; [ ] = another dose, or the depositor's remark. On the % scale 0 is the no-effect control and ±100 the full control effect; potency means the concentration at half of the fitted maximal effect. Not all compounds are listed (hit frequency here may not be typical).

SMILES | VDR inh
COc1cccc(NC(=O)Cn2c(=O)n(Cc3ccccc3)c(=O)c3c4c(sc32)CN(C(C)=O)CC4)c1 | -11%
O=C(NC1CC1)c1ccc2c3c(cccc13)CC2 | 3%
Cc1ccc(S(=O)(=O)Nc2cccc(C(=O)NCCCN3CCOCC3)c2)cc1F | -9%
O=C1N[C@@H](Cc2ccccc2)C(=O)N2[C@H]1C[C@]1(Br)c3ccccc3N(S(=O)(=O)c3ccccc3)[C@H]21 | 2%
CCCCNC(=O)CS(=O)Cc1nc(-c2cccc(C)c2)oc1C (stereo not drawn) | -7%
COc1ccc(-c2noc(CN(Cc3nccn3C)C(C)C)n2)cc1 | -12%
CCCC(C)NC(=O)CSc1nc(-c2ccccc2)cn1N (stereo not drawn) | -4%
CC(=O)Nc1ccc(S(=O)(=O)N2CCN(c3nc(C)cc(C)n3)CC2)cc1 | 2%
COc1ccc(CC2(CO)COc3ccccc3C2=O)cc1 (stereo not drawn) | -4%
Cc1cc(Cl)ccc1NC(=O)CSc1n[nH]c(N)n1 | -7%
CCN1CCN(CCCNC(=O)CCC(=O)N2CCOc3ccc(Cl)cc32)CC1 | 1%
Cc1ccc2sc(C)[n+](CCCS(=O)(=O)[O-])c2c1 | -28%
CCN(c1ccccc1)S(=O)(=O)c1ccc(Oc2ccc([N+](=O)[O-])cc2)nc1 | -27%
Nc1cc(=O)[nH]c(SCC(=O)NCC2CCCO2)n1 (stereo not drawn) | -8%
COc1ccc(C2SCC(=O)N2c2c(C)n(C)n(-c3ccccc3)c2=O)c(OC)c1 (stereo not drawn) | 4%
Cc1ccc2[nH]c(-c3ccccc3)c(CN3CCN(C)CC3)c(=O)c2c1 | 27%
Nc1nonc1-n1nnc(C(=O)N/N=C/c2cccc(Cl)c2)c1CN1CCCC1 | -20%
c1ccc(N2CCN(c3cnccn3)CC2)nc1 | 22%
C=CCn1c(SCCC#N)nnc1-c1ccncc1 | -6%
Cc1noc(C)c1S(=O)(=O)N1CCC(C(=O)NCCCN2CC(C)CC(C)C2)CC1 (stereo not drawn) | 16%
O=C(N/N=C/c1cc([N+](=O)[O-])cc([N+](=O)[O-])c1O)C(O)(c1ccccc1)c1ccccc1 | -22%
CCCc1cc(=O)[nH]c2nnc(SCCC(C)C)n12 | -4%
C[C@@H]1CN([C@@H](C)CO)C(=O)c2cc(NS(=O)(=O)c3cccs3)ccc2O[C@H]1CN(C)Cc1ccc(C(F)(F)F)cc1 | -20%
Nc1c(C(=O)N2CCOCC2)sc2nc3c(cc12)CCC3 | 5%
CCCN(CCC)C(=O)C1CCN(c2ncnc3c2nc2n3CCCCC2)CC1 | 10%
CCC(C)NC(=O)COC(=O)c1cc([N+](=O)[O-])ccc1Sc1nc(C)cs1 (stereo not drawn) | -7%
Cc1ccc([N+](=O)[O-])cc1NC(=O)C(C)NS(=O)(=O)c1ccc(F)cc1 (stereo not drawn) | -5%
CC(NC(=O)CNC(=O)c1ccccc1F)c1ccc(-n2ccnc2)cc1 (stereo not drawn) | 4%
COc1ccc(-n2c(=O)[nH]c3cc(C(=O)NCCc4ccccc4)ccc3c2=O)cc1OC | -9%&3%
CC(C)CNC(=O)c1cccc(C(=O)NCC(C)C)c1 | -7%
CCc1ccc(NC(=O)Cn2c(=O)n(-c3ccc(OC)cc3)c(=O)c3ccc(C(=O)NCc4ccc(C)cc4)cc32)cc1 | 5%
CC(C)NC(=O)c1ccccc1-c1ccccc1 | 1%
C/C(=N\Nc1ccc(C(F)(F)F)cn1)c1ccncc1 | 0%
Cc1n[nH]c(C)c1CCC(=O)N/N=C/C=C/c1ccccc1 | -8%
O=C(c1cccc(F)c1)N1CCC2(CC1)CCN(c1ncccn1)CC2 | 1%
S=C(NCc1ccccn1)Nc1ccc(Cl)cc1 | 1%
CN1CCN(C(=O)c2cc(COc3c(F)cccc3F)on2)CC1c1ccccc1 (stereo not drawn) | -1%
Cc1cccc(C(=O)N2CCCC(Nc3ccc(C(C)C)cc3)C2)n1 (stereo not drawn) | 2%
Cc1cccc(/C(N)=N/OC(=O)c2ccco2)c1 | 5%
COc1ccccc1Oc1c(C)oc2c(CN3CCN(CCO)CC3)c(O)ccc2c1=O | -3%
O=S1(=O)CCOC[C@H](c2ccccc2)N1Cc1ccccc1F | 14%
CCc1ccccc1NC(=O)C1(S(=O)(=O)c2ccc(C)cc2)CC1 | 19%
Cc1nn(-c2ccccc2)c(C)c1NC(=O)COC(=O)CCc1ccccc1 | -29%
Cc1ccc(Cl)cc1NC(=O)c1cc(S(=O)(=O)N2CCCCCC2)cn1C | -1%
Cc1nc([N+](=O)[O-])nn1C12CC3CC(CC(Cl)(C3)C1)C2 | -14%
COc1cc(O)c2c(=O)c(-c3ccc(O[C@@H]4O[C@H](CO)[C@@H](O)[C@H](O)[C@H]4O)cc3)coc2c1 | -13%
Clc1ccc(Nc2ccc(Cl)nn2)cc1 | -8%
O=S(=O)(NC1CCCCC1N1CCOCC1)c1ccc(Cl)cc1 (stereo not drawn) | -1%
CC(=O)c1cc(-c2ccccc2)n(CCC(=O)NC2CCCCCC2)c1C | -15%
O=C(N1CCOCC1)N1CCC(NC(=O)C23CC4CC(CC(C4)C2)C3)CC1 | -15%
COc1ccc(C2/C=C\CN(CC(C)(C)C)CC(=O)N2Cc2ccc(F)cc2)cc1 (stereo not drawn) | -3%
CC(C)c1ccc(NC(=O)COC(=O)C2CC3C=CC2C3)cc1 (stereo not drawn) | -5%
O=C(NNc1cc(Cl)cc(Cl)c1)c1cccs1 | -1%
Cc1ccc(C)c(N2CCN(C(=O)CCNS(=O)(=O)c3ccc4c(c3)oc(=O)n4C)CC2)c1 | -6%
O=C1C=CN2CCCC2CC1 (stereo not drawn) | -3%
O=C(Nn1cnnc1)c1ccncc1 | 3%
CCc1ccc(OCC(=O)Nc2ccncc2)c(Br)c1 | -12%
COC(=O)c1cc(=O)n(Cc2ccco2)c(=Nc2ccc(F)c(Cl)c2)s1 | u
Cc1coc2cc3oc(=O)c(CC(=O)NCc4cccc(Cl)c4)c(C)c3cc12 | 10%
Fc1ccc(Nc2nc(NCc3ccco3)c3ccccc3n2)cc1 | 6%

(continued)
SMILES | VDR inh
CC1CCN(C(=O)C2CCN(S(=O)(=O)N3CCC4(CC3)OCCO4)CC2)CC1 | 8%
CCOC(=O)C1CCN(Cc2cc(C(C)(C)C)c(O)c(C(C)(C)C)c2)CC1 | 4%
COc1cc(CN(C(=O)c2ccc(OC(C)C)cc2)C2CCS(=O)(=O)C2)cc(OC)c1OC (stereo not drawn) | 3%
Cc1ccccc1-n1c(-c2ccncc2)n[nH]c1=S | -9%
CCC(C)(C)n1nnnc1C(c1ccccc1F)N1CCC(C(N)=O)CC1 (stereo not drawn) | -2%
COC(=O)Nc1ccc(OC)c(OC)c1 | -1%
Cc1nc([N+](=O)[O-])c(C(=O)OCc2ccccc2F)n1C | 1%
CCC(NC(=O)OCc1ccccc1)C(=O)Oc1ccc2ccc(=O)oc2c1 (stereo not drawn) | u
C[C@H](CO)N1C[C@H](C)[C@@H](CN(C)S(=O)(=O)c2ccc(F)cc2)Oc2ccc(NC(=O)c3ccncc3)cc2C1=O | 0%
O=C(NCCCc1ccccc1)c1ccc(Br)o1 | -6%
O=S1(=O)N=C2CCCCCN2C(c2ccc(Br)cc2)N1 (stereo not drawn) | -1%
COCCN(C(=O)CCC(=O)Nc1nccs1)C(C(=O)NCCC(C)C)c1ccc(OC)cc1 (stereo not drawn) | -1%
Cc1cc(C)n(C/C=C/Cn2nc(C)cc2C)n1 | 7%
Cc1cccc(NC(=O)CCS(=O)(=O)c2cc(Br)cc3c2N(C(=O)C2CC2)CC3)c1 | -15%
O=C(COc1ccc(-c2nnco2)cc1)Nc1c(Cl)cccc1C(F)(F)F | -11%
Cc1cc(NC2CCCCC2)nc2ccccc12 | -17%
COc1ccc(-c2cnc3c(-c4ccc(F)cc4)cnn3c2N)cc1 | 3%
CC(C)c1ccc(C(=O)COC(=O)C(O)c2ccccc2)cc1 (stereo not drawn) | -9%
CCOC(=O)c1c(NC(=S)Nc2ccccc2)sc2c1CC(C)(C)SC2 | 0%
Cc1ccc(-n2c3c(c(O)c(-c4ccccc4)c2=O)C(=O)CC(C)(C)C3)cc1 | -12%
Cc1ccc(S(=O)(=O)N(C)CCCC(=O)Nc2ccc(C)cc2C)cc1 | -14%
CCOC(=O)N1CCN(CC(=O)Nc2cc3c(cc2C(C)=O)OCO3)CC1 | -10%
CCOC(=O)c1nc(N)c(C(=O)OCC)[nH]1 | -11%
CC(=O)Oc1ccc2c(=O)c(Oc3ccccc3[N+](=O)[O-])coc2c1 | -24%
O=C(O)Cn1nc(-c2ccccc2)c2ccccc2c1=O | 3%
O=C(NCc1ccc2c(c1)OCO2)c1ccc(=O)[nH]c1 | 6%
CCCCCC(=O)Nc1ccc(C(=O)N/N=C/c2ccc([N+](=O)[O-])cc2)cc1 | -11%
O=C(CSc1nnc(-c2ccco2)n1-c1ccccc1)N1CCOCC1 | 4%
Cc1ccc(NC(=O)Cc2nc(COC(=O)C(C)NS(=O)(=O)c3ccc(C)cc3)cs2)cc1 (stereo not drawn) | 23%
CCNC(=S)N=Nc1c(O)[nH]c2ccc([N+](=O)[O-])cc12 | -19%
Cc1cc(C)n(CC(O)CN(c2ccccc2)S(=O)(=O)c2ccc3ccccc3c2)n1 (stereo not drawn) | 0%
COc1cccc(N(CC(=O)N/N=C(\C)c2cccs2)S(C)(=O)=O)c1 | 1%
O=S(=O)(c1ccc2ccccc2c1)N1CCN(C(=S)Nc2ccc(F)cc2)CC1 | 3%
C[C@H](CO)N1C[C@H](C)[C@@H](CN(C)S(=O)(=O)c2cccs2)Oc2c(NS(=O)(=O)c3cn(C)cn3)cccc2C1=O | -7%
CCOc1ccc(CNC(=O)CCn2nc(C)c3c(C)n(-c4ccccc4)nc3c2=O)cc1 | 0%
C=CCON/C(CCC)=C1\C(=O)C(C(=O)OC)C(C)(C)CC1=NC (stereo not drawn) | 13%
Cc1ccc(C)n1-c1ccc(-c2ccnc(N)n2)cc1 | -4%
O=C(c1ccccc1)N1CCN(CC(O)COCC2CC=CCC2)CC1 (stereo not drawn) | 11%
N#CC1=C(N)S[C@@H](C(=O)c2ccc(F)cc2)[C@@H]1c1cccs1 | -5%
COc1ccccc1NC(=O)CSc1nnnn1Cc1ccccc1 | -7%

In another format: 15 of the compounds above
mol	VDR inh
CCOC(=O)N1CCN(CC(=O)Nc2cc3c(cc2C(C)=O)OCO3)CC1	-10%
CCOC(=O)c1nc(N)c(C(=O)OCC)[nH]1	-11%
CC(=O)Oc1ccc2c(=O)c(Oc3ccccc3[N+](=O)[O-])coc2c1	-24%
O=C(O)Cn1nc(-c2ccccc2)c2ccccc2c1=O	3%
O=C(NCc1ccc2c(c1)OCO2)c1ccc(=O)[nH]c1	6%
CCCCCC(=O)Nc1ccc(C(=O)N/N=C/c2ccc([N+](=O)[O-])cc2)cc1	-11%
O=C(CSc1nnc(-c2ccco2)n1-c1ccccc1)N1CCOCC1	4%
Cc1ccc(NC(=O)Cc2nc(COC(=O)C(C)NS(=O)(=O)c3ccc(C)cc3)cs2)cc1 (stereo not drawn)	23%
CCNC(=S)N=Nc1c(O)[nH]c2ccc([N+](=O)[O-])cc12	-19%
Cc1cc(C)n(CC(O)CN(c2ccccc2)S(=O)(=O)c2ccc3ccccc3c2)n1 (stereo not drawn)	0%
COc1cccc(N(CC(=O)N/N=C(\C)c2cccs2)S(C)(=O)=O)c1	1%
O=S(=O)(c1ccc2ccccc2c1)N1CCN(C(=S)Nc2ccc(F)cc2)CC1	3%
C[C@H](CO)N1C[C@H](C)[C@@H](CN(C)S(=O)(=O)c2cccs2)Oc2c(NS(=O)(=O)c3cn(C)cn3)cccc2C1=O	-7%
CCOc1ccc(CNC(=O)CCn2nc(C)c3c(C)n(-c4ccccc4)nc3c2=O)cc1	0%
C=CCON/C(CCC)=C1\C(=O)C(C(=O)OC)C(C)(C)CC1=NC (stereo not drawn)	13%

The listing continues:
SMILES | VDR inh
Cc1cc(C(=O)NCc2ccccc2Br)no1 | -8%
O=C(Cc1ccc(F)cc1)NCCc1csc(-c2cccc(F)c2)n1 | 12%
Cc1ccc(C)c(NC(=O)C2CCCN2C(=O)NC2CCCCC2)c1 (stereo not drawn) | -7%
COc1ccc(N2Cc3cccc(C(=O)Nc4ccc(Cl)cc4)c3C2=O)cc1 | -11%
CC(=O)Nc1ccc(NC(=O)C(C)c2cccc(C(=O)c3ccccc3)c2)cc1 (stereo not drawn) | 2%
CCOc1ccc(NC(=O)Nc2c[nH]c(=O)[nH]c2=O)cc1 | 17%
O=C(NC1CCCCCCC1)c1cnccn1 | -8%
Cc1ccccc1C(=O)Nc1nnc(CC(=O)N/N=C/c2ccncc2)s1 | 4%
CC1(C)CC(=O)C2=C(C1)NC(Nc1nc3ccccc3o1)=NC2c1ccccc1Cl (stereo not drawn) | -5%
CCOC(=O)Cc1csc(NC(=S)NC(=O)c2ccccc2)n1 | 5%
Cc1oc(-c2ccc(Cl)cc2)nc1CS(=O)CC(=O)NCCCN(C)C1CCCCC1 (stereo not drawn) | -5%
CCOC(=O)[C@H]1[C@H]2COc3ccc(C)cc3[C@@H]2N2C(=O)[C@@H](C)NC(=O)[C@@]12C | -10%
CC(C)[C@H](NC(=O)[C@@H]1Cc2c([nH]c3ccccc23)C2c3ccccc3C(=O)N21)C(=O)N1CCC[C@@H]1C(=O)O (stereo partly drawn) | 2%
CC(NC(=O)c1c(O)c2ccccc2n(C)c1=O)c1ccccc1 (stereo not drawn) | 29%
CCOC(=O)c1cccc(Nc2cc(C)nc(C)n2)c1 | 13%
Cc1ccc(S(=O)(=O)N(Cc2nc(-c3ccc(Cl)cc3)no2)C2CCCCC2)cc1 | 15%
CCc1nnc(NC(=O)C2CC(=O)N(Cc3ccccc3)C2)s1 (stereo not drawn) | 34%[activator]
COc1ccc(CNC(=O)c2ccc3c(c2)N(Cc2ccc(C)cc2)CCS3)cc1 | -14%
CCC(C)(C)NC(=O)CN(C(=O)CNS(=O)(=O)c1ccccc1)c1ccccc1 | -10%
COc1ccc(-c2noc(CCCC(=O)NCC3CCCO3)n2)cc1 (stereo not drawn) | 10%
Cc1nn(C(=O)c2nn(C)cc2Cl)c(C)c1Br | -8%
